A1 apoptosis 2: compounds inhibiting A1, read as caspase activation | 24,000 tested, under 10 active | caspase activation, % (concentration not given with the values) | MEF A1-2A-BIM cells, caspase-Glo luminescence, 3 h; percent of clofoctol response, DMSO zero; in the data active = caspase activation above about 5.9%;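 also: wells of about 30 µL received 50 nL stock; the first replicate is given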
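Evaluation: Caspase-3/7 activity from luminescence increase | Assay system: A1-2A-BIM mouse embryonic fibroblasts | Quantity: 2500 MEF cells/well | Medium: RPMI-1640 plus 10% FBS | Detection: Caspase-Glo 3/7 luminescence, 1 h at room temperature | Dosing: 50 nL compound per well, pinned | Timing: Cells settled overnight, compound exposure 3 h at 37 °C, 5% CO2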
* marks the source's active call; other numbers are inactive results. A portion of the library; rates above refer to the full screens.

SMILES	A1 apoptosis 2
COc1ccc(S(=O)(=O)Nc2ccc3c(c2)C(=O)N([C@@H](C)CO)C[C@H](C)[C@@H](CN(C)Cc2ccc(Cl)c(Cl)c2)O3)cc1	1.2
C[C@@H]1CCCCO[C@H](CN(C)C(=O)Nc2ccc(F)cc2)[C@H](C)CN([C@H](C)CO)C(=O)c2cc(NS(=O)(=O)c3ccc(Cl)cc3)ccc2O1	0.7
C[C@@H]1CN([C@@H](C)CO)C(=O)c2cc(NC(=O)CCCCCC(=O)Nc3ccccc3N)ccc2O[C@H]1CN(C)C(=O)NC1CCCCC1	1.7
O=C(Cc1ccccc1)OC(C(=O)NCc1ccccc1)c1ccco1 (stereo unspecified)	-0.8
C[C@@H]1CN([C@@H](C)CO)C(=O)c2cccc(NC(=O)NC3CCCCC3)c2O[C@@H]1CN(C)C(=O)Nc1ccc(C(F)(F)F)cc1	-0.3
Cc1noc(C)c1S(=O)(=O)N(C)C[C@H]1Oc2c(NC(=O)c3cnccn3)cccc2C(=O)N([C@H](C)CO)C[C@H]1C	0.1
C[C@@H]1CCCCO[C@@H](CN(C)S(=O)(=O)c2ccc(F)cc2)[C@@H](C)CN([C@@H](C)CO)C(=O)c2cc(NS(=O)(=O)c3ccccc3)ccc2O1	-0.4
C[C@@H]1CCCCO[C@@H](CN(C)Cc2ccccc2)[C@@H](C)CN([C@H](C)CO)C(=O)c2cc(NC(=O)CCCN(C)C)ccc2O1	-1.1
NC(=O)C1=C[C@H](c2ccccc2)C[C@H](OCc2ccc(CO)cc2)O1	-0.4
CC(C)NC(=O)N(C)C[C@@H]1OCCCC[C@@H](C)Oc2ccc(NC(=O)Nc3ccc(F)cc3)cc2C(=O)N([C@@H](C)CO)C[C@H]1C	0.6
CNC[C@@H]1Oc2ccc(NC(=O)Nc3ccc(OC)cc3)cc2C(=O)N([C@H](C)CO)C[C@H]1C	-0.3
Cc1noc(C)c1S(=O)(=O)Nc1cccc2c1O[C@@H](CN(C)Cc1ccc3c(c1)OCO3)[C@@H](C)CN([C@@H](C)CO)C2=O	-0.1
Cc1noc(C)c1S(=O)(=O)Nc1cccc2c1O[C@H](CN(C)Cc1ccc(Oc3ccccc3)cc1)[C@H](C)CN([C@@H](C)CO)C2=O	0.2
C[C@H](CO)N1C[C@H](C)[C@@H](CN(C)C(=O)c2ccccc2)OCCCC[C@H](C)Oc2ccc(NS(C)(=O)=O)cc2C1=O	0.6
C[C@@H]1CN([C@@H](C)CO)C(=O)c2cc(NC(=O)CCN3CCOCC3)ccc2O[C@H]1CN(C)C(=O)Nc1ccc2c(c1)OCO2	-0.9
C[C@@H]1CCCCO[C@H](CN(C)C)[C@@H](C)CN([C@H](C)CO)C(=O)c2cc(NC(=O)CCCN(C)C)ccc2O1	0.8
C[C@H](CO)N1C[C@H](C)[C@H](CN(C)Cc2ccncc2)Oc2ccc(NC(=O)CCN3CCOCC3)cc2CC1=O	-0.7
COc1ccc(S(=O)(=O)Nc2cccc3c2O[C@@H](CN(C)Cc2ccc(Oc4ccccc4)cc2)[C@@H](C)CN([C@@H](C)CO)C3=O)cc1	-0.2
CNC[C@H]1Oc2c(NC(=O)C3CCOCC3)cccc2C(=O)N([C@@H](C)CO)C[C@H]1C	1.2
C[C@@H]1CN([C@@H](C)CO)C(=O)Cc2cc(NC(=O)c3ccncc3)ccc2O[C@H]1CN(C)Cc1ccc(C(=O)O)cc1	-0.2
CNC[C@@H]1OCCCC[C@H](C)Oc2ccc(NC(=O)c3ccccc3)cc2C(=O)N([C@@H](C)CO)C[C@H]1C	0.4
COc1ccc(S(=O)(=O)N(C)C[C@@H]2Oc3ccc(NC(=O)CCCN(C)C)cc3C(=O)N([C@@H](C)CO)C[C@@H]2C)cc1	-0.7
CC(C)NC(=O)Nc1ccc2c(c1)C(=O)N([C@@H](C)CO)C[C@@H](C)[C@@H](CN(C)CC1CCCCC1)OCCCC[C@H](C)O2	1.0
CNC[C@@H]1OCCCC[C@H](C)Oc2ccc(NS(=O)(=O)c3ccc(OC)cc3)cc2C(=O)N([C@H](C)CO)C[C@@H]1C	-0.5
Cc1ccccc1/C=N/NC(=O)CCCCCC(=O)O	-0.9
SMILES	A1 apoptosis 2
CC(C)NC(=O)Nc1cccc2c1O[C@H](CN(C)CC1CCCCC1)[C@H](C)CN([C@@H](C)CO)C2=O	-0.2
C[C@@H]1CCCCO[C@@H](CN(C)C(=O)Nc2ccccc2)[C@@H](C)CN([C@@H](C)CO)C(=O)c2cc(NC(=O)Nc3ccc(F)cc3)ccc2O1	0.3
O=C(O)c1cccc(/C=N/NC(=O)c2ccc(C(=O)NO)cc2)c1	-0.3
C[C@H]1CN([C@@H](C)CO)C(=O)Cc2cc(NC(=O)c3ccncc3)ccc2O[C@@H]1CN(C)CC1CCCCC1	0.6
C[C@@H]1CN([C@H](C)CO)C(=O)c2cc(NC(=O)C3CCCCC3)ccc2O[C@H]1CN(C)C(=O)Nc1ccc2c(c1)OCO2	0.6
CN1CCN(C(=O)C2=C[C@H](c3ccc(C(F)(F)F)cc3)C[C@H](OCc3ccc(CO)cc3)O2)CC1	-0.3
C[C@H](CO)N1C[C@H](C)[C@H](CN(C)S(=O)(=O)c2ccc(Oc3ccccc3)cc2)OCc2cnnn2CCCC1=O	0.1
C[C@@H]1CN([C@H](C)CO)C(=O)c2cc(NC(=O)CCC(F)(F)F)ccc2O[C@@H]1CN(C)S(=O)(=O)c1cn(C)cn1	-0.5
C[C@@H]1CN([C@H](C)CO)C(=O)c2cc(NS(C)(=O)=O)ccc2O[C@H]1CN(C)C(=O)Nc1ccccc1	-0.5
Cc1ccc(S(=O)(=O)Nc2ccc3c(c2)C(=O)N([C@@H](C)CO)C[C@@H](C)[C@H](CN(C)Cc2ccc4c(c2)OCO4)O3)cc1	1.9
C[C@@H]1CN([C@H](C)CO)C(=O)c2cc(NC(=O)c3ccncc3)ccc2O[C@@H](C)CCCCO[C@H]1CN(C)Cc1ccc(C(=O)O)cc1	0.2
CNC[C@@H]1Oc2c(NC(=O)NC3CCCCC3)cccc2C(=O)N([C@H](C)CO)C[C@H]1C	-0.2
O=S(=O)(NC1CCN(Cc2cccc(OCCO)c2)CC1)c1ccc(Cl)cc1	0.3
C[C@@H]1CCCCO[C@H](CN(C)Cc2ccccc2)[C@@H](C)CN([C@H](C)CO)C(=O)c2cc(NC(=O)Nc3ccc(C(F)(F)F)cc3)ccc2O1	-0.2
C[C@@H]1CN([C@@H](C)CO)C(=O)c2cc(NC(=O)C3CCCCC3)ccc2O[C@@H]1CN(C)Cc1ccc2c(c1)OCO2	-0.5
C[C@H](CO)N1C[C@H](C)[C@H](CN(C)Cc2ccc3c(c2)OCO3)Oc2ccc(NC(=O)NC3CCCCC3)cc2CC1=O	0.7
COc1ccc(S(=O)(=O)N(C)C[C@@H]2Oc3c(NS(=O)(=O)c4c(C)noc4C)cccc3C(=O)N([C@H](C)CO)C[C@@H]2C)cc1	1.1
C[C@@H]1CN([C@H](C)CO)C(=O)c2cc(NS(C)(=O)=O)ccc2O[C@@H](C)CCCCO[C@H]1CN(C)C(=O)Nc1ccc(C(F)(F)F)cc1	-0.8
C[C@@H]1CCCCO[C@H](CN(C)S(=O)(=O)c2ccc(Cl)cc2)[C@@H](C)CN([C@H](C)CO)C(=O)c2cc(NC(=O)NC3CCCCC3)ccc2O1	1.7
C[C@H]1CN([C@@H](C)CO)C(=O)c2cc(NC(=O)Nc3cccc4ccccc34)ccc2O[C@H]1CN(C)C(=O)Nc1cccc2ccccc12	0.2
CNC[C@@H]1OCCCC[C@H](C)Oc2ccc(NC(=O)Nc3c(C)noc3C)cc2C(=O)N([C@@H](C)CO)C[C@H]1C	-0.5
C[C@@H]1CCCCO[C@H](CN(C)Cc2ccccc2)[C@H](C)CN([C@H](C)CO)C(=O)c2cc(NC(=O)Nc3ccc4c(c3)OCO4)ccc2O1	0.7
C[C@H]1CN([C@@H](C)CO)C(=O)CCCn2cc(nn2)CO[C@H]1CN(C)C(=O)Nc1cccc(Oc2ccccn2)c1	-1.3
C[C@@H]1CCCCO[C@@H](CN(C)Cc2ccc(C(F)(F)F)cc2)[C@@H](C)CN([C@@H](C)CO)C(=O)c2cc(NC(=O)Nc3cccc4ccccc34)ccc2O1	-0.8
C[C@@H]1CCCCO[C@@H](CN(C)Cc2ccc(C(F)(F)F)cc2)[C@@H](C)CN([C@H](C)CO)C(=O)c2cc(NC(=O)Nc3ccc4c(c3)OCO4)ccc2O1	-1.1

Quoted at random: 6 compounds from above
SMILES	A1 apoptosis 2
C[C@@H]1CCCCO[C@@H](CN(C)Cc2ccc(C(F)(F)F)cc2)[C@@H](C)CN([C@H](C)CO)C(=O)c2cc(NC(=O)Nc3ccc4c(c3)OCO4)ccc2O1	-1.1
C[C@@H]1CCCCO[C@@H](CN(C)C(=O)Nc2ccccc2)[C@@H](C)CN([C@@H](C)CO)C(=O)c2cc(NC(=O)Nc3ccc(F)cc3)ccc2O1	0.3
C[C@@H]1CCCCO[C@@H](CN(C)Cc2ccc(C(F)(F)F)cc2)[C@@H](C)CN([C@@H](C)CO)C(=O)c2cc(NC(=O)Nc3cccc4ccccc34)ccc2O1	-0.8
CN1CCN(C(=O)C2=C[C@H](c3ccc(C(F)(F)F)cc3)C[C@H](OCc3ccc(CO)cc3)O2)CC1	-0.3
C[C@@H]1CN([C@@H](C)CO)C(=O)c2cc(NC(=O)C3CCCCC3)ccc2O[C@@H]1CN(C)Cc1ccc2c(c1)OCO2	-0.5
C[C@@H]1CCCCO[C@H](CN(C)S(=O)(=O)c2ccc(Cl)cc2)[C@@H](C)CN([C@H](C)CO)C(=O)c2cc(NC(=O)NC3CCCCC3)ccc2O1	1.7

More compounds follow:
SMILES	A1 apoptosis 2
COc1ccc(S(=O)(=O)N(C)C[C@@H]2Oc3ccc(NC(=O)NC4CCCCC4)cc3C(=O)N([C@H](C)CO)C[C@H]2C)cc1	1.5
C[C@H]1CCCCO[C@@H](CN(C)C(=O)Nc2cccc3ccccc23)[C@@H](C)CN([C@@H](C)CO)C(=O)c2cc(NS(C)(=O)=O)ccc2O1	-0.4
C[C@@H]1CN([C@H](C)CO)C(=O)Cc2cc(NC(=O)C3CC3)ccc2O[C@H]1CN(C)C(=O)Nc1ccc(C(F)(F)F)cc1	0.9
Cc1ccc(S(=O)(=O)Nc2ccc3c(c2)CC(=O)N([C@@H](C)CO)C[C@H](C)[C@H](CN(C)C(=O)Nc2cccc4ccccc24)O3)cc1	0.5
C[C@H]1CN([C@@H](C)CO)C(=O)Cc2cc(NC(=O)Nc3ccc(C(F)(F)F)cc3)ccc2O[C@@H]1CN(C)CC1CC1	0.9
C[C@H](CO)N1C[C@H](C)[C@@H](CN(C)C(=O)Nc2ccc(F)cc2)Oc2ccc(NC(=O)Cn3cnnn3)cc2CC1=O	-1.2
C[C@@H]1CN([C@@H](C)CO)C(=O)c2cc(NS(=O)(=O)c3ccccc3)ccc2O[C@@H]1CN(C)CC1CC1	-1.1
C[C@@H]1CN([C@H](C)CO)C(=O)c2cc(NS(C)(=O)=O)ccc2O[C@@H](C)CCCCO[C@@H]1CN(C)C(=O)Cc1ccccc1	-0.7
C[C@@H]1CN([C@@H](C)CO)C(=O)c2cccc(NC(=O)C3CC3)c2O[C@@H]1CN(C)S(=O)(=O)c1cccs1	-0.5
COc1ccc(CN(C)C[C@H]2Oc3ccc(NC(=O)Cc4ccccc4)cc3C(=O)N([C@@H](C)CO)C[C@H]2C)cc1	-0.5
C[C@@H]1CN([C@@H](C)CO)C(=O)CCCn2cc(nn2)CO[C@H]1CN(C)C(=O)Cc1ccccc1	0.3
C[C@H]1CCCCO[C@@H](CN(C)C(=O)Cc2ccccc2)[C@@H](C)CN([C@@H](C)CO)C(=O)c2cc(NS(C)(=O)=O)ccc2O1	-0.2
COc1ccc(CN(C)C[C@H]2Oc3ccc(NS(=O)(=O)c4ccc(Cl)cc4)cc3CC(=O)N([C@H](C)CO)C[C@@H]2C)cc1	0.2
C[C@H]1CN([C@@H](C)CO)C(=O)Cc2cc(NC(=O)C3CCCCC3)ccc2O[C@H]1CN(C)C(=O)Nc1ccc(C(F)(F)F)cc1	0.8
C[C@@H]1CN([C@@H](C)CO)C(=O)c2cc(NC(=O)C3CCCCC3)ccc2O[C@@H](C)CCCCO[C@H]1CN(C)Cc1ccc(C(=O)O)cc1	0.5
C[C@H](CO)N1C[C@H](C)[C@H](CN(C)C(=O)Nc2cccc(C(F)(F)F)c2)OCc2cn(nn2)CCCC1=O	-0.3
C[C@@H]1CN([C@@H](C)CO)C(=O)c2cc(NS(=O)(=O)c3ccc(Cl)cc3)ccc2O[C@@H](C)CCCCO[C@H]1CN(C)Cc1ccccc1	0.8
CCCN(C)C[C@@H]1OCCCC[C@@H](C)Oc2ccc(N(C)C)cc2C(=O)N([C@H](C)CO)C[C@@H]1C	0.4
COc1ccc(NC(=O)Nc2cccc3c2O[C@H](CN(C)S(=O)(=O)c2ccc(C)cc2)[C@H](C)CN([C@H](C)CO)C3=O)cc1	0.1
C[C@H]1CN([C@@H](C)CO)C(=O)c2cccc(NC(=O)C3CCOCC3)c2O[C@H]1CN(C)S(=O)(=O)c1cccs1	0.8
C[C@H](CO)N1C[C@H](C)[C@H](CN(C)Cc2ccc(Cl)c(Cl)c2)Oc2ccc(NC(=O)Nc3ccc4c(c3)OCO4)cc2C1=O	-1.2
C[C@H]1CN([C@@H](C)CO)C(=O)c2cccc(NS(=O)(=O)c3cccs3)c2O[C@H]1CN(C)Cc1ccc(Cl)c(Cl)c1	-0.7
Cc1ccc(S(=O)(=O)Nc2ccc3c(c2)C(=O)N([C@@H](C)CO)C[C@H](C)[C@H](CN(C)C(=O)Nc2c(C)noc2C)OCCCC[C@H](C)O3)cc1	-1.4
Cc1noc(C)c1NC(=O)N(C)C[C@H]1OCCCC[C@H](C)Oc2ccc(NC(=O)C3CCCCC3)cc2C(=O)N([C@@H](C)CO)C[C@H]1C	0.6

Bioassay records from PubChem BioAssay.
